TsaE inh = qHTS Assay for Inhibitors of YjeE; purified YjeE, fluorescence polarisation of a bound ADP probe; Potency, µM; hit rate 0.05% among 71,000; AID 605, 2007; active = well fitted falling curve; inconclusive = weaker or top-dose-only fall, or a rising curve; inactive = flat or poorly fitted curve;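 also: top concentration of the series not given in the record; excess ADP was the control for the full effect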
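Purified YjeE (10 uM) with BODIPY Texas Red-labeled ADP probe (2 uM); compounds pin-transferred, 15 min at room temperature. Binding inhibition read as decreased fluorescence polarization; ADP titration as control.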
Bst PK mod = Pyruvate Kinase | partly purified Bacillus stearothermophilus pyruvate kinase, luminescence ATP production; ribose 5-phosphate activator present at AC10 | Potency, µM | hit rate 1.2% among 51,000; in the data active means potency below about 11 µM; inconclusive means mostly about 12 µM to 25 µM; inactive means weaker than that;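 the screen sought inhibitors and activators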;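 also: potency is read from the fitted curve at half-maximal effect; scaled between full activation by ribose 5 phosphate and full inhibition by luteolin; about four in five hits inhibit and the cells do not say which; series up to 57 µM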
* = called active by the depositor; i = inactive; ? = inconclusive; · = not tested or not shown. Only part of the results is shown; the hit share may differ from the screen's.

TsaE inh	Bst PK mod	compound
i	>57	CCOC(=O)C1CCCN(C(=O)c2cn(C)c(=O)c3cc(OC)c(OC)cc23)C1 (centres undefined)
i	>57	Nn1c(CSc2ccccn2)nc2ccccc2c1=O
i	·	COc1ccc(-n2c(Cc3cc(=O)[nH]c(=O)[nH]3)nnc2SCC(=O)N2CCC(C)CC2)cc1
i	9.61*	COc1ccc(-n2nc3cc(C)c(NC(=O)c4cccnc4)cc3n2)cc1
i	·	CC(=O)c1ccc(NC(=O)C2CCCN2S(=O)(=O)c2ccc(F)cc2)cc1 (centres undefined)
i	·	Nc1cc(Cl)c([N+](=O)[O-])cc1O
i	>57	COc1ccc(N2C(=O)c3ccc(NC(C)=O)cc3C2=O)cc1
i	·	CSCCC(N=CC1=C(O)CC(C)(C)CC1=O)C(=O)O (centres undefined)
i	>57	CCC(Sc1nc2ccccc2c(=O)n1CCN1CCOCC1)C(=O)NCc1cccnc1 (centres undefined)
i	>57	Nc1c(C(=O)OCC2CCCO2)c2nc3ccccc3nc2n1C1CCCC1 (centres undefined)
i	>57	Cc1cc2c(nn1)CCc1nonc1-2
i	>57	O=C(CSc1nnc(-c2ccco2)o1)NC(=O)C1COc2ccccc2O1 (centres undefined)
i	>57	CC(=O)c1cc2c(O)c(O)ccc2o1
i	i	Cc1cc(C)c(S(=O)(=O)Nc2ccc[nH]c2=O)c(C)c1
i	>57	O=C(CC1(O)C(=O)Nc2ccccc21)c1cccnc1 (centres undefined)
i	>57	COC(=O)c1ccc(COc2ccc3c4c(c(=O)oc3c2)CCC4)o1
i	·	CN(C)S(=O)(=O)c1cccc(-c2cn3ccccc3n2)c1
i	·	C=CCOC(=O)COCCC(C)C
i	>57	Cc1cccc(NC(=O)C2CCN(c3nc(C)cc(C)n3)CC2)c1
i	>57	COC(=O)c1ccccc1NC(=O)c1cc(-c2cccc(OC)c2)on1
i	·	O=C(CSc1nc2c(c(=O)n1-c1ccccc1)SCC2)N1CCOCC1
i	·	CCCCOC(=O)Cc1c(O)c2ccccc2[nH]c1=O
i	·	CC(=O)c1ccc(N2CCN(C(=O)c3cc(-c4ccc5c(c4)OCO5)nc4ccccc34)CC2)cc1
i	>57	COC(=O)C1=C(C)Nc2c(c(=O)n(C)c(=O)n2C)C1c1cccs1 (centres undefined)
i	>57	CC1(C)CC(=O)C2=C(C1)N=C1SCCC(=O)N1C2c1ccccc1 (centres undefined)
i	·	O=C(Cn1nnc(-c2cc(Cl)ccc2-n2cnnn2)n1)N1CCCc2ccccc21
i	>57	O=C(COn1nnc2ccc(Cl)cc21)NCc1ccccc1
i	>57	CC(NC(=O)c1cccc(N2CCCC2=O)c1)c1ccc2c(c1)OCCO2 (centres undefined)
i	·	COCCn1c(=O)c(-c2cccc(Cl)c2)nc2cncnc21
i	>57	CNC(=O)N(O)C1N(C)C(=O)N(Cc2ccccc2)C1(C)C (centres undefined)
i	>57	Cn1c(=O)c2cc(S(=O)(=O)Nc3cccc(F)c3)ccc2n(C)c1=O
i	·	CCS(=O)(=O)n1nc(-c2ccc(Cl)cc2)nc1N
i	·	O=C(NCc1ccco1)C1CCN(c2nnc(-n3cccc3)s2)CC1
i	>57	CCCC(=O)Nc1ccc2nc(SCC(=O)Nc3nccs3)sc2c1
i	>57	O=C(O)C1CCCCC1C(=O)Nc1cccc(C(=O)N2CCCCC2)c1 (centres undefined)
i	·	Cc1ccc(S(=O)(=O)Nc2ccc3oc(=O)sc3c2)c(C)c1
i	>57	COc1ccc(Cn2c(=O)[nH]c3cc(C(=O)NCCCN4CCCCC4)ccc3c2=O)cc1
i	>57	CCn1c(COc2ccc3c(c2)OCO3)nnc1SCC(=O)c1ccccc1
i	>57	COc1ccc(CC(=O)NCc2nnc(SCCOc3ccccc3)n2C)cc1
i	>57	COc1ccc(NC(=O)c2cc(-c3cccs3)on2)cc1OC
i	?	c1ccc2c(-n3cnnn3)cccc2c1
i	>57	CCOc1ccc(CCNC(=O)C2CCN(c3nn4c(=O)cc(C)nc4s3)CC2)cc1OCC
i	>57	CC(C)OP(=O)(c1ccc(N(C)C)cc1)C(O)c1ccncc1 (centres undefined)
i	>57	Cc1cc(=O)[nH]c(SCC(=O)N2c3ccccc3CC2C)n1 (centres undefined)
i	>57	O=C1CCC(C(=O)NCCCn2ccnc2)N1 (centres undefined)
i	>57	Cn1c(=O)c(C(=O)c2ccccc2)nc2ccccc21
i	>57	CCc1c(C)nc(SCC(=O)Nc2cccc(Br)c2)[nH]c1=O
i	>57	N#CC(C(=O)NCc1ccccc1)c1nc2ccccc2nc1N1CCCC1 (centres undefined)
i	>57	CCC1CCc2sc(C(=O)O)cc2C1 (centres undefined)
i	>57	Cn1c(Cc2csc(N)n2)nnc1SCC(=O)NCc1ccccc1
i	·	O=C(O)CCCCNS(=O)(=O)c1ccc(Cl)c(C(F)(F)F)c1
i	·	Cc1csc2nc(CSc3nncn3-c3ccccc3)c(Br)n12
i	>57	CCOC(=O)Cc1csc(SCC(=O)Nc2sc3c(c2C(N)=O)CCC3)n1
i	>57	COCCCN1C(=O)c2ccccc2C1C(=O)NC1CCCCCC1 (centres undefined)
i	>57	C=CCOc1ccc(/C(O)=C2\C(=O)C(=O)N(CCCOC)C2c2ccncc2)cc1 (centres undefined)
i	>57	Cc1nnc(SCC(=O)N2CCc3ccccc32)n1-c1ccccc1
i	>57	CC(C)(C)C(=O)N=C1SC2CS(=O)(=O)CC2N1c1ccc2c(c1)OCO2 (centres undefined)
i	>57	CCOC(=O)c1c(-c2ccc(C)o2)csc1NC(=O)COC(=O)c1cccs1
i	>57	CCn1c(NCc2ccco2)nc2c1c(=O)n(C)c(=O)n2C
i	>57	COc1ccc(OC)c(C(c2nnnn2C2CCCC2)N2CCN(c3ccccc3F)CC2)c1 (centres undefined)

(continued)
TsaE inh	Bst PK mod	compound
i	>57	O=C(NCC1CCCO1)C1CCN(S(=O)(=O)N2CCCC2)CC1 (centres undefined)
i	>57	CCCCN(C)CCCNC(=O)CCn1nc(-c2ccccc2)ccc1=O
i	·	Cc1ccc(C)c(N2CCN(CCCNC(=O)Cn3cc4c(n3)CCC(C)C4)CC2)c1 (centres undefined)
i	·	O=c1[nH]nc2c3ccccc3cnn12
i	>57	Cc1ccc(C(=O)N2CCN(C(=O)CN3CCCC3)C2)cc1
i	·	Cc1nc2cccc([N+](=O)[O-])c2n1CCCN(C)C
i	>57	CCN(CC(=O)Nc1ccc2c(c1)OCO2)Cc1nc2ccccc2c(=O)[nH]1
·	>25.6	COc1ccc(/C(O)=C2/C(=O)C(=O)N(CCN3CCOCC3)C2c2ccccn2)cc1OC (centres undefined)
i	>57	COCC(=O)Nc1cccc2ccccc12
i	>57	Cc1ccc(NC(=O)N2CCC(C(=O)NCc3ccc(F)cc3)CC2)cc1
i	·	O=C(Cn1c(=O)oc2cc(S(=O)(=O)NCc3ccccc3)ccc21)NCc1ccco1
i	>57	CCc1c(O)nc(N2CCN(Cc3ccccc3)CC2)[nH]c1=O
·	>25.6	CC(=N\O)/C(CN(C)C)=N/O
i	·	O=C(c1cc(C(F)(F)F)cc(C(F)(F)F)c1)N1CCC2(CC1)CN(c1ccccc1)C2
i	>57	C=CCc1cccc(CNc2c(C)n(C)n(-c3ccccc3)c2=O)c1O

16 entries out of the list, ordered by length of the SMILES, rising.
TsaE inh	Bst PK mod	compound
·	>25.6	CC(=N\O)/C(CN(C)C)=N/O
i	>57	COCC(=O)Nc1cccc2ccccc12
i	·	O=c1[nH]nc2c3ccccc3cnn12
i	·	Cc1nc2cccc([N+](=O)[O-])c2n1CCCN(C)C
i	>57	CCn1c(NCc2ccco2)nc2c1c(=O)n(C)c(=O)n2C
i	>57	CCc1c(O)nc(N2CCN(Cc3ccccc3)CC2)[nH]c1=O
i	>57	CCCCN(C)CCCNC(=O)CCn1nc(-c2ccccc2)ccc1=O
i	>57	C=CCc1cccc(CNc2c(C)n(C)n(-c3ccccc3)c2=O)c1O
i	>57	Cc1ccc(NC(=O)N2CCC(C(=O)NCc3ccc(F)cc3)CC2)cc1
i	>57	CCOC(=O)c1c(-c2ccc(C)o2)csc1NC(=O)COC(=O)c1cccs1
i	>57	CCN(CC(=O)Nc1ccc2c(c1)OCO2)Cc1nc2ccccc2c(=O)[nH]1
i	>57	CC(C)(C)C(=O)N=C1SC2CS(=O)(=O)CC2N1c1ccc2c(c1)OCO2 (centres undefined)
i	·	Cc1ccc(C)c(N2CCN(CCCNC(=O)Cn3cc4c(n3)CCC(C)C4)CC2)c1 (centres undefined)
i	·	O=C(Cn1c(=O)oc2cc(S(=O)(=O)NCc3ccccc3)ccc21)NCc1ccco1
·	>25.6	COc1ccc(/C(O)=C2/C(=O)C(=O)N(CCN3CCOCC3)C2c2ccccn2)cc1OC (centres undefined)
i	·	O=C(c1cc(C(F)(F)F)cc(C(F)(F)F)c1)N1CCC2(CC1)CN(c1ccccc1)C2

Remaining list, next part.
TsaE inh	Bst PK mod	compound
i	·	COC(=O)N1CC=CC1(C)C(=O)NCc1ccc(C)o1 (centres undefined)
i	>57	Cc1ccc(S(=O)(=O)N(C)CCCC(=O)Nc2ccccn2)cc1
i	>57	c1ccc(Cn2nnc3c(NCc4ccc5c(c4)OCO5)nc(C4CC4)nc32)cc1
i	·	COc1ccc(Cl)cc1N1C(=O)C2CCCN2C1c1cccc(F)c1 (centres undefined)
i	·	COc1ccc(-n2c(Cc3cccn3C)nnc2SCC(=O)Nc2nccs2)cc1
i	>57	C=CCNCc1cccn1-c1ccccc1
i	4.45*	c1c2c(cc3sc(N4CCOCC4)nc13)OCCO2
i	>57	CCCC(c1nnnn1Cc1ccco1)N1CCN(c2cc(Cl)ccc2C)CC1 (centres undefined)
·	>25.6	C[C@]12CC[C@@H]3c4ccc(OS(=O)(=O)O)cc4CC[C@H]3[C@@H]1CCC2=O
i	·	N#Cc1cccc(-c2nccc(NCc3cccnc3)n2)c1
i	>57	COCC(=O)Nc1nc2n(n1)C(c1ccc(Cl)cc1)CC(c1ccc(OC)cc1)N2 (centres undefined)
i	·	Cc1ccc2oc(=O)c3cnn(CC(=O)NC4CCC(C)CC4)c3c2c1 (centres undefined)
i	>57	O=C(c1cccnc1Nc1ccc2c(c1)CCC2)N1CCOCC1
i	>57	CC1(C)CSC(=S)N1S(=O)(=O)c1ccccc1
i	·	CCOc1ccc(C2N(c3cc(Cl)ccc3OC)C(=O)C3CCCN32)cc1OC (centres undefined)

Among those listed so far, two contain bromine.
TsaE inh	Bst PK mod	compound
i	>57	CCc1c(C)nc(SCC(=O)Nc2cccc(Br)c2)[nH]c1=O
i	·	Cc1csc2nc(CSc3nncn3-c3ccccc3)c(Br)n12

Other structures
TsaE inh	Bst PK mod	compound
i	>57	CCc1ccccc1NC1=NCC(=O)N1Cc1ccc(OC)cc1
i	>57	CN(C1CCCCC1)S(=O)(=O)c1ccc(C(=O)O)cc1
i	·	CCN(CC)CCNC(=O)CCc1n[nH]c(=O)c2ccccc12
i	>57	CCNS(=O)(=O)c1ccc2nc(NC(=O)c3cccnc3)sc2c1
i	i	Cc1ccc(CNC(=O)CNS(=O)(=O)c2cccc3nsnc23)cc1
i	·	Cc1cc(NC(=O)c2ccco2)ncc1NC(=O)Cc1ccccc1
i	·	N#CCCN(CC(=O)O)S(=O)(=O)c1ccccc1
·	>25.6	COc1cccc(N2CCN(c3ncnc4c3[nH]c3ccccc34)CC2C)c1 (centres undefined)
i	>57	O=C(Nc1ccc(Nc2ccccc2)cc1)N1CCOCC1
i	·	Cc1nc2cnc(N3CCN(C)CC3)nc2n(Cc2ccc(F)cc2)c1=O
i	>57	CC1(c2ccc(OC(F)F)cc2)NC(=O)N(CC(=O)NC2CCCCC2)C1=O (centres undefined)
i	·	COc1ccc(N(CC(=O)N2CCc3ccccc3C2)S(=O)(=O)c2c(C)nn(C)c2C)cc1
i	>57	COC(=O)C1C2C=CC3(CN(C(C)c4ccc(OC)cc4)C(=O)C13)O2 (centres undefined)
i	>57	Cc1ccc(C(=O)NCc2ccc(Cl)cc2)o1
i	>57	NC(=O)CN1C(=O)C2CCCCN2C(=O)c2ccccc21 (centres undefined)
i	>57	O=C(NCc1cccs1)c1cccnc1C(=O)O
i	>57	O=C(Nc1c(C(=O)N2CCOCC2)cnn1-c1ccccc1)c1ccco1
i	>57	Cc1cc(C)cc(N(CC(=O)NC2CCCCC2)C(=O)CCC(=O)Nc2cc(C)ccn2)c1
i	>57	O=C(CCNC(=O)Cn1ccc2ccccc2c1=O)NCCN1CCN(c2ccccc2F)CC1
i	>57	COC(=O)NCCOC(=O)N(O)c1ccc(Br)cc1
i	>57	O=C(COc1ccc2c(c1)OCO2)NC12CC3CC(CC(C3)C1)C2
i	·	COc1ccccc1N1CCN(c2cc(=O)n(-c3ccc(Cl)cc3)c(=O)[nH]2)CC1
i	>57	Cc1nc2ccc(NC(=O)N3CCCCC3)cc2s1
i	·	COc1ccc(-c2nc(CS(=O)CC(=O)NCc3ccccn3)c(C)o2)cc1 (centres undefined)
i	>57	CCOC(=O)C1CCCN(c2c(NCCCN(CC)c3cccc(C)c3)c(=O)c2=O)C1 (centres undefined)
i	>57	O=C(OCC(O)CN1CCCCC1)C12CC3CC(CC(C3)C1)C2 (centres undefined)
i	·	O=C(Nc1ccccc1)c1ccc2nc(-c3ccco3)c(-c3ccco3)nc2c1
i	6.87*	Cc1ccc(NC(=O)c2ccc3ccccc3n2)nc1
i	·	Cn1c(=O)c2c(nc(NCc3ccccc3)n2Cc2ccc(F)cc2)n(C)c1=O
i	>57	O=C(NCC1CCCO1)c1csc2c1CCCC2 (centres undefined)
i	>57	O=C(CCc1nc2ccccc2c(=O)[nH]1)N1CCN(C/C=C/c2ccccc2)CC1
i	·	CNc1ccc(OC(F)F)cc1C(=O)c1ccccc1
i	·	COc1ccc(C(C#N)(CCC#N)CCC#N)cc1OC
i	>57	COc1ccc(C)cc1NC(=O)CSc1nc(SC)ns1

High-throughput results: PubChem, National Center for Advancing Translational Sciences (NCATS)
